FGF22 binding: FGF22 (human) thermal shift binding | recombinant FGF22 thermal shift, SYPRO orange fluorescence; percent of sucrose octasulfate shift, DMSO zero | calls only at 9.99 µM | actives 1.5% (n = 340,000) | AID 651658;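 active = melting point raised past a set limit in the mean and every replicate; three in four hits are not shown here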
Beta2AR agonist: activates human beta-2 adrenergic receptor causing internalization | P07550 | Am2.2-beta2AR cells, FAP receptor internalization, flow cytometry; reference of the scale not given here | response, % (test concentration not listed) | actives 0.43% (n = 340,000) | AID 504454;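 active = response above a set limit, near 3 SD of response in nonfluorescent compounds, cut at about 42% in these data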;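 note: stock transfer was 100 nL into about 11 µL; a reference agonist was the positive control; negative values mostly stem from fluorescent compounds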
HNF4A DNA FP: change in binding of human HNF4 alpha to DNA; actives 0.3% (n = 360,000); activity change, % at 10 µM; HNF4a-FITC DNA binding, fluorescence polarization, 1 h; in the data active = activity change above about 30%, passing the limit was not always enough;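 note: controls were the assay level and a saturating level of protein; the project sought stronger binding though the title names inhibitors; some compounds called inactive have numbers as strong as hits; positive values seem to mean higher polarization but the record does not say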
UCH37 inh: human UCH37 deubiquitinating enzyme inhibition. Q9Y5K5. purified proteasome/UCH37, Ub-AMC cleavage fluorescence. inhibition, % (test concentration not listed). actives 0.33% (n = 330,000). AID 588478;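 active = mean of two replicates above 20%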;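 note: 0% = compound-free wells with enzyme and 100% = wells lacking proteasome; stock transfer was 100 nL into about 20 µL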
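assay system = human UCH37 enzyme supplied as purified proteasome complex | amount = proteasome at 0.15 nM in the dispensed enzyme solution | schedule = 30 min compound-proteasome preincubation then 25 min substrate reaction, room temperature | measured by = fluorescence, ex 355 nm, em 460 nm | benchmarks = no-proteasome wells (full inhibition) and compound-free wells (no inhibition)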
LANA-H2A inh: blocks KSHV LANA binding to histone H2A/H2B. Q9QR71. cell-free LANA-H2A/H2B peptide, fluorescence polarization. inhibition, % (concentration not given with the values). actives 0.6% (n = 320,000); in the data active = inhibition mostly above about 10%, no sharp cut-off; inactive = mostly below about 6.7%;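 note: stock transfer was 7.5 nL into about 10 µL; 0% = median of vehicle wells and 100% = median of positive control wells; one replicate is shown; the record names a cut of 25% in any replicate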
Target sequence (Q9QR71 whole entry, looked up): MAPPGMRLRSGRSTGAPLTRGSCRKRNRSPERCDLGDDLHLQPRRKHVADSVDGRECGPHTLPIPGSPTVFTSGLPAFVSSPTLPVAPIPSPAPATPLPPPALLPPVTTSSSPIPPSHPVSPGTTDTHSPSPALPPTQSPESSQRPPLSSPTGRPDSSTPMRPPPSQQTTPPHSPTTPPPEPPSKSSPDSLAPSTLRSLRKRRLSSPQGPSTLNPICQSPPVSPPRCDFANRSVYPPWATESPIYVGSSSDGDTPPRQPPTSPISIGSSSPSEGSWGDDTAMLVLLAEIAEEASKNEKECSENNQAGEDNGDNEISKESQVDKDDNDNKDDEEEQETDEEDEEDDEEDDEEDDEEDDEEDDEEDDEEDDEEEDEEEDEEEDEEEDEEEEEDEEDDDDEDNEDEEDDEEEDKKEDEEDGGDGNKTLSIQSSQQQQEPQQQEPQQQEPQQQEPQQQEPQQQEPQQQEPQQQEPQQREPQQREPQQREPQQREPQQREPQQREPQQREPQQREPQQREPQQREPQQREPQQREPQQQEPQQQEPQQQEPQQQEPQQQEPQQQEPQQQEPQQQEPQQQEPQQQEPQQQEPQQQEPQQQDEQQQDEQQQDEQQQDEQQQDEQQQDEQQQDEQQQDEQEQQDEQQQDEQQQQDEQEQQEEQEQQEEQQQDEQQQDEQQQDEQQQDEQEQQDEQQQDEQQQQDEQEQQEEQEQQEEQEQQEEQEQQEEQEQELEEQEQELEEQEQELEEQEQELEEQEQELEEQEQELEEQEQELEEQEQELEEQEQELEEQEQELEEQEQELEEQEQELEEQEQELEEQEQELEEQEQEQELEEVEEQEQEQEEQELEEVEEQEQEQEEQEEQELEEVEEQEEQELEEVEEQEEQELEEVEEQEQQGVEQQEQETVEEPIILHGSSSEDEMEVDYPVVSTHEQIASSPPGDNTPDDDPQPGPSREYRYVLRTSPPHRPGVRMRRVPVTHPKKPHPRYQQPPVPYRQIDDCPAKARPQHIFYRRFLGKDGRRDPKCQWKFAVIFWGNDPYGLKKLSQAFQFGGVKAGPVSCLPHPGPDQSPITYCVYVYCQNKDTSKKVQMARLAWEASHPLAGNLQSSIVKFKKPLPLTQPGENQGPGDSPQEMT
Ecoli growth: inhibitors of Escherichia coli growth; OD600, 23 h; hits give low values; OD600 absorbance (no concentration beside the values); actives 0.21% (n = 330,000);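 active = OD600 absorbance below the run mean of sample wells minus 3.6 SD, in any replicate, cut at about 0.56 in these data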;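 note: stock transfer was 300 nL into about 60 µL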
ALR inh: human ALR oxidase inhibition via reduced H2O2; actives 3.8% (n = 290,000); inhibition, % (no concentration beside the values); purified ALR, DTT oxidation, H2O2 HRP-luminol luminescence; P55789;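 active = mean and each replicate at 75% or more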;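 note: stock transfer was 7.5 nL into about 7.5 µL; 0% = neutral wells and 100% = wells with inactivated enzyme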
Starred values were filed as active, the others as inactive; i = inactive; · = not tested or not shown.

item	SMILES	FGF22 binding	Beta2AR agonist	HNF4A DNA FP	UCH37 inh	LANA-H2A inh	Ecoli growth	ALR inh
1	CC(=O)c1ccc(S(=O)(=O)N2CCN(CC(=O)Nc3ccccc3C(=O)NC3CC3)CC2)cc1	i	1.6	0.3	2.7	2.7	0.685	·
2	CCN(CC)C(=O)CN(c1cccc([N+](=O)[O-])c1)S(=O)(=O)c1ccccc1	i	1.5	3.1	2.0	0.6	0.711	-3.8
3	Cc1ccc(NC(=O)CN(C)C(=O)CCOc2ccccc2C)cc1	i	3.9	4.6	0.7	-2.8	0.67	-2.0
4	Nc1ccc2oc(-c3ccc4nc[nH]c4c3)nc2c1	·	13.0	0.6	-65.3	-4.1	0.658	·
5	COc1ccccc1NS(=O)(=O)c1cccc(NC(=O)Nc2ccc(Cl)cc2)c1	i	6.4	2.1	3.4	-2.1	0.647	-2.6
6	Cc1c(C(=O)O)oc2c1/C(=N\O)CCC2	i	1.5	-3.2	·	2.3	·	-1.2
7	CCOc1ccc(C2CC(=O)NC(SCC(=O)OC)=C2C#N)cc1 (centres undefined)	i	-10.6	-4.3	5.7	-3.1	0.768	4.5

From no. 1 to 7, as listed above:
item	SMILES	FGF22 binding	Beta2AR agonist	HNF4A DNA FP	UCH37 inh	LANA-H2A inh	Ecoli growth	ALR inh
1	CC(=O)c1ccc(S(=O)(=O)N2CCN(CC(=O)Nc3ccccc3C(=O)NC3CC3)CC2)cc1	i	1.6	0.3	2.7	2.7	0.685	·
2	CCN(CC)C(=O)CN(c1cccc([N+](=O)[O-])c1)S(=O)(=O)c1ccccc1	i	1.5	3.1	2.0	0.6	0.711	-3.8
3	Cc1ccc(NC(=O)CN(C)C(=O)CCOc2ccccc2C)cc1	i	3.9	4.6	0.7	-2.8	0.67	-2.0
4	Nc1ccc2oc(-c3ccc4nc[nH]c4c3)nc2c1	·	13.0	0.6	-65.3	-4.1	0.658	·
5	COc1ccccc1NS(=O)(=O)c1cccc(NC(=O)Nc2ccc(Cl)cc2)c1	i	6.4	2.1	3.4	-2.1	0.647	-2.6
6	Cc1c(C(=O)O)oc2c1/C(=N\O)CCC2	i	1.5	-3.2	·	2.3	·	-1.2
7	CCOc1ccc(C2CC(=O)NC(SCC(=O)OC)=C2C#N)cc1 (centres undefined)	i	-10.6	-4.3	5.7	-3.1	0.768	4.5

These rows are one share of the data, so the mix of outcomes need not match the whole.
